Assay outcomes deposited in PubChem BioAssay by PCMD.
Biofilm kill mix – clotrimazole potentiators killing C. albicans biofilm, primary screen, 4-compound mixtures; C. albicans biofilm persisters + clotrimazole, fluorescence viability; primary screen in compound mixtures of four per well; inhibition, % at 7.6 µM; 120,000 tested, 0.02% active; AID 1242, 2008;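 active = inhibition above 30.3% in the primary screen of four-compound pools, then above 30% when the compound was retested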;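 note: compounds exposed to preformed 24 h biofilms for 48 h; the number belongs to the whole pool; some results filed as inactive read as strong as hits; inactives centre near 12; 0% = biofilm with clotrimazole alone and 100% = kill control; retested singly at about 60 µM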
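Test system: C. albicans biofilms. Buffer or medium: RPMI/MOPS medium, pH 7.0. Timing: 48 h compound exposure at 37 °C. Technique: Alamar Blue fluorescence. Evaluation: percent inhibition of biofilm viability.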
* marks the source's active call; other numbers are inactive results.

SMILES | Biofilm kill mix
Cc1cccc(CCNC(=O)C2CCC(CNS(=O)(=O)c3cccs3)CC2)c1 (stereo not drawn) | 8.6
CC(C)c1ccc(NC(=O)COc2ccc(F)cc2C(=O)c2cnn(-c3ccccc3)c2)cc1 | 4.2
CCN1CCN(C(c2cccc(OC)c2)c2sc3nc(C)nn3c2O)CC1 (stereo not drawn) | 10.6
O=C(NNc1cccc(Cl)n1)c1ccc(Cl)nc1 | -2.2
CCCCN(CCCC)/C(N)=N/c1nc(C)cc(C)n1 | 8.6
CC(C)(C)NC(=O)CSc1nncn1NCc1c(Cl)cccc1Cl | 0.0
COc1ccc(Oc2nnnn2-c2ccccc2)cc1 | 4.4
Nc1nc[nH]c(=O)c1N=Cc1ccccc1 | -0.7
O=C(CSc1nc(-c2ccco2)cc(C(F)(F)F)n1)N1CCN(c2cccc(Cl)c2)CC1 | 14.1
O=C(NCc1nnc2c3ccccc3c(-c3ccccc3)nn12)c1ccc(Cl)cc1 | 17.2
CCn1cc(CNCc2cn(-c3ccccc3C)nc2-c2ccc(OC)c(F)c2)cn1 | 24.4
O=C(CSc1ccc(-c2ccccc2)nn1)NCC1CCCO1 (stereo not drawn) | 7.0
COc1ccc(/C=N/NC(=O)c2ccc(COc3cccc4cccnc34)cc2)cc1OC | 8.9
COC(=O)C(CSCc1ccccc1)NC(=O)CSc1nc(N)cc(=O)[nH]1 (stereo not drawn) | 20.1
Cc1ccc2cc(C3CC(c4ccco4)=NN3C(=O)CCC(=O)O)c(Cl)nc2c1 (stereo not drawn) | 18.3
Cc1cc(-n2cnc3c(=O)[nH]cnc32)ccc1N | 17.7
O=C(C1CCN(S(=O)(=O)c2ccc(Br)s2)CC1)N1CCN(C2CCCCC2)CC1 | 8.8
O=C1N/C(=N\c2ccccn2)SC1Cc1ccc(Cl)cc1 (stereo not drawn) | 12.6
CC1CC(C)CN(S(=O)(=O)c2ccc(NN)nc2)C1 (stereo not drawn) | 18.4
COC(=O)C[n+]1cccc2ccccc21 | 12.6
Cc1cc(C)c2c(C)c(C(=O)Nc3c(C)n(C)n(-c4ccccc4)c3=O)oc2c1 | -11.1
OC1(C#CCN2CCOCC2)CCCCC1 | 18.6
O=C(COC(=O)c1sc2ccccc2c1Cl)NCC1CCCCC1 | 6.1
Cn1nc(C(C)(C)C)c([N+](=O)[O-])c1C(=O)Nc1ccccc1 | -1.2
Cc1ccc(-n2nc(C)c(NC(=O)CCl)c2C)cc1 | 14.2
The listing continues.
SMILES | Biofilm kill mix
CCCCN1C=CC(=C2N=c3cccc([N+](=O)[O-])c3=N2)C=C1 | -11.1
Cc1cccc(C(=O)N/C(=C\c2ccc(C)o2)C(=O)O)c1 | 15.4
COc1ccc(/C=C2\C(=O)c3ccccc3OC2c2ccccc2)cc1 (stereo not drawn) | 10.5
COC(CN1C(=O)C(=O)/C(=C(/O)c2ccccc2)C1c1ccccn1)OC (stereo not drawn) | 23.4
O=C(CSc1ccc2c(c1)OCCO2)NC(=O)Cc1ccccc1 | 8.4
Cc1nn2c(NCc3cccnc3)c3c(nc2c1-c1ccccc1)CCC3 | 13.3
CCCCCCCC1CC(/C(C)=N/NC(N)=O)OC1=O (stereo not drawn) | 10.2
COC(=O)C(=Cc1ccc(-c2ccsc2C(=O)OC)o1)C(=O)OC | 8.3
CC(=O)Nc1ccc(N=Cc2ccc(OCc3ccccc3)cc2)cc1 | 9.4
CC1CCN(C(=O)COC(=O)c2ccc3c(c2)OCO3)CC1 | 2.1
CSc1ncccc1C(=O)N1CCCC(CCC(=O)NCc2ccccc2F)C1 (stereo not drawn) | 17.0
CCC(C)(C)NC(=O)C(c1cccnc1)N(C(=O)c1csnn1)c1ccc(C)cc1 (stereo not drawn) | 14.8
O=C(COC(=O)c1ccc(Cl)nc1)Nc1ncc(Cl)cc1Cl | 5.4
CN(c1ccccc1)c1ccc(/C=N/N2CCOCC2)cc1 | 9.7
COc1cc(/C=N/NC(=O)C(=O)NCC2CCCO2)ccc1O (stereo not drawn) | 15.3
c1csc(C2=NNC(=NC3CCCCC3)SC2)c1 | 2.1
O=c1c2c([nH]n1-c1ccccc1)CCCC2 | 12.7
CCN(CC)S(=O)(=O)c1ccc(C(=O)OCC(=O)NCc2ccco2)cc1 | 7.7
Cc1nc([N+](=O)[O-])c(Br)n1Cc1ccc(Cl)c(Cl)c1 | 19.6
CC1CCCN(C(=O)CN2CCC(c3nc4ccc(Cl)cc4[nH]3)CC2)C1 (stereo not drawn) | 23.7
CN1C(=O)/C(=C/c2ccco2)SC1=Nc1ccc(N2CCOCC2)cc1 | 8.3
CC(C)(C)c1ccc(S(=O)(=O)N2CCCC2C(=O)N2CCOCC2)cc1 (stereo not drawn) | 8.2
COCCNS(=O)(=O)c1ccc(-c2ccc(Cl)cc2)cc1 | 14.4
Cc1ccc(C)c(N=Cc2ccc(-c3ccc([N+](=O)[O-])cc3)o2)c1 | 5.0
O=[N+]([O-])c1ccc2c(c1)C(O)n1nc(-c3ccccc3)nc1S2 (stereo not drawn) | 6.7
(further entries)
SMILES | Biofilm kill mix
O=C(/C(=C/O)N=Nc1ccccc1)c1cccs1 | 13.1
CC(=O)Nc1ccc(C(=O)NCC(=O)OCc2c(F)cccc2Cl)cc1 | 10.3
Nc1nccc(/C=C/c2c(Cl)cccc2Cl)n1 | 21.8
O=c1c2ccccc2nnn1CSc1ccccc1F | 10.3
CCN1C(=O)C(CC(=O)Nc2c(C)cccc2C)SC1=Nc1ccc(S(N)(=O)=O)cc1 (stereo not drawn) | 19.7
CCN1CCN(C(c2cccs2)C(C)NC(=S)NC2CCCCC2)CC1 (stereo not drawn) | 10.9
CC(C)CCNC(=O)C1CC(c2ccc(C(F)(F)F)cc2)=NO1 (stereo not drawn) | 22.3
Cc1nn(-c2ccccc2)c(C)c1[N+](=O)[O-] | 18.8
Cc1cnc(C(=O)Nc2ccc(N3CCCCC3)cc2)cn1 | 10.5
CNC(=O)N/N=C(\N)c1ccccn1 | 15.8
Cc1ccc(-c2csc(NC(=S)NC(=O)c3cccs3)n2)cc1 | 11.9
CCOC(=O)CN(C(=O)CNC(=O)c1cccs1)C(C(=O)NC1CCCCC1)c1cccnc1 (stereo not drawn) | 6.1
CC(C)Cn1c(SC(C)C(=O)Nc2ccc(N3CCOCC3)cc2)nc2ccccc21 (stereo not drawn) | 19.1
CC1=CCC2([N+](=O)[O-])CN(CC(=O)O)CC1([N+](=O)[O-])C2 (stereo not drawn) | 14.1
COc1cc(CCCN2C(=O)C(=O)NC[C@@H]2C(C)O)cc(OC)c1OC (stereo partly drawn) | 16.0
CC(=O)c1c(C)[nH]c(C(=O)Nc2nccs2)c1C | 12.3
Cc1ccc(NC(=O)C(C)S)cc1 (stereo not drawn) | 13.8
O=[N+]([O-])c1ccc(COc2ncnc3ccccc23)cc1 | -3.9
COc1ccc(Cl)cc1NC(=O)CN(C)CC(=O)Nc1ccc(Br)cc1 | 13.5
CSc1nnc(-c2ccccc2SC)o1 | 31.0
O=C(O)c1ccc(Nc2nc(-c3cccnc3)nc3ccccc23)cc1 | 15.0
O=S(=O)(c1ccc(Br)s1)N1CCc2ccccc2C1 | 7.4
CCc1cc(C(=O)c2ccc(OC)cc2)c(N)s1 | 7.2
Cn1cc2ccc([N+](=O)[O-])cc2n1 | 25.8
O=C1CC(c2ccc(Cl)cc2)CC(=O)C1CS(=O)(=O)c1ccccc1 (stereo not drawn) | 8.4

Individual results from the entries so far:
Cc1ccc2cc(C3CC(c4ccco4)=NN3C(=O)CCC(=O)O)c(Cl)nc2c1 (stereo not drawn) in Biofilm kill mix has 18.3
CN1C(=O)/C(=C/c2ccco2)SC1=Nc1ccc(N2CCOCC2)cc1 in Biofilm kill mix has 8.3
Cc1cnc(C(=O)Nc2ccc(N3CCCCC3)cc2)cn1 in Biofilm kill mix has 10.5

The list continues.
SMILES | Biofilm kill mix
NS(=O)(=O)c1ccc(CNC(=O)Cc2ccccc2F)cc1 | 12.6
O=C(Oc1ccccc1C(=O)Oc1ccccc1)c1cccnc1 | 11.9
Cc1ccc(N(CC(=O)Nc2c(C)n(C)n(-c3ccccc3)c2=O)S(C)(=O)=O)cc1C | 15.2
COc1ccc(C2NC(c3ccc(OC)cc3)C(c3ccccc3)C(=O)C2c2ccccc2)cc1 (stereo not drawn) | 12.7
CCOC(=O)C1=C(C)Nc2ccccc2N=C1NC(=O)C(CC)c1ccccc1 (stereo not drawn) | 14.1
CCOc1ccc(CNC(=S)NCc2ccc(OCC)cc2)cc1 | 16.9
N#C/C(=N\Nc1ccc(Cl)cc1)C(=O)c1ccsc1 | 14.5
CCOC(=O)c1c(NC(=O)CSc2nnc(C)o2)sc(C)c1C | 15.0
CCc1ccc(Nc2n[n+](C)c(-c3ccc(C(=O)O)cc3)s2)cc1 | 13.3
Cc1ccc(S(=O)(=O)NN=C2CCN(Cc3ccccc3)CC2)cc1 | 10.1
CCO[C@H]1OC(C(=O)N2CCN(C)CC2)=C[C@@H](c2csc3ccccc23)[C@@H]1CCCO | 16.6
N#Cc1ccccc1NC(=O)C1SC(=Nc2ccccc2)C(C(=O)Nc2ccc(Cl)cc2)=C1N (stereo not drawn) | 18.8
CNS(=O)(=O)c1ccc(NC(=O)c2ccc(Cl)cc2Cl)cc1 | 15.7
CC(=O)c1ccc(OCCCC(=O)Nc2cccc(S(=O)(=O)N(C)C)c2)cc1 | 14.4
COc1ccccc1/C=N/Nc1cc(N(C)C)nc(N(C)C)n1 | 7.2
Cc1ccc(S(=O)(=O)N2CCCN(c3nc4cc(C)ccc4cc3C#N)CC2)cc1 | 13.9
O=C(NC1CCCc2ccccc21)c1ccc(Br)cc1 (stereo not drawn) | 12.2
O=S(=O)(NCCSc1ccccn1)c1ccc(Br)cc1 | -2.6
Cc1ccc(S(=O)(=O)CCc2nnc(NC(=O)c3cccs3)s2)cc1 | -1.4
CNS(=O)(=O)c1c(C)cc(C)c(N(C)S(=O)(=O)c2ccccc2)c1C | 55.1
COc1cccc(NC(=O)N2CCCC2)c1 | 16.1
CCOc1nc(NC(=O)NS(=O)(=O)c2ccccc2F)nc(-c2ccccc2)n1 | 9.7
CCN(CC)C(=O)c1cnn(-c2ccccc2)c1NC(=O)c1cccs1 | 9.5
COc1ccc(-c2ccc(CCC(=O)O)n2-c2ccccc2O)cc1 | 6.9
Cc1cc(Nc2ccccc2C(=O)O)n(-c2cccc(Cl)c2)n1 | 20.2

Part of the list above, with each value named.
Cc1cnc(C(=O)Nc2ccc(N3CCCCC3)cc2)cn1
- Biofilm kill mix: 10.5

CNC(=O)N/N=C(\N)c1ccccn1
- Biofilm kill mix: 15.8

Cc1ccc(-c2csc(NC(=S)NC(=O)c3cccs3)n2)cc1
- Biofilm kill mix: 11.9

CCOC(=O)CN(C(=O)CNC(=O)c1cccs1)C(C(=O)NC1CCCCC1)c1cccnc1 (stereo not drawn)
- Biofilm kill mix: 6.1

Further entries:
SMILES | Biofilm kill mix
O=C(Nc1cccc(NC(=S)NC(=O)c2cccs2)c1)c1ccccc1 | 8.6
Cc1cccc(Oc2nccc(C(F)(F)F)c2C(=O)Nc2ccc(F)cc2F)c1 | 17.4
CSc1n[nH]c(NC(=O)c2c(-c3c(Cl)cccc3Cl)noc2C)n1 | 11.4
Cn1nc(C(=O)OCC(=O)c2ccc[nH]2)c2ccccc2c1=O | 10.2
O=C(CCC(=O)Nc1ccccc1)N/N=C/C=C/c1ccccc1 | 14.4
CCOc1ccc(NC(=O)Nc2cccnc2)cc1 | 11.2
C=CCNC(=O)C1(c2ccccc2)CC1(Cl)Cl (stereo not drawn) | 8.8
N#C/C(=C\c1ccc(OC(=O)c2ccc(Cl)s2)cc1)c1nc2ccccc2[nH]1 | 11.5
O=C(O)CC(SCC(=O)Nc1ccc(S(=O)(=O)N2CCCC2)cc1)C(=O)O (stereo not drawn) | 13.6
COc1ccc(C(=O)N/C(=C\c2ccc3c(c2)OCO3)C(=O)Nc2cccc(C(=O)O)c2)cc1 | 17.8
COC(=O)c1nc[nH]c1C(=O)OC | 9.5
CC1=CC2=NC(=O)/C(=C\c3cccn3CCOc3cccc(C)c3)C(=N)N2O1 | 16.0
COc1ccc(-c2nc(-c3ccccc3)ncc2S(C)(=O)=O)cc1 | 6.5
Cc1ccc2c(c1)C1CN(C)CCC1N2C(=S)Nc1ccc(OC(F)F)cc1 (stereo not drawn) | 28.3
Cc1cccc(Cc2nnc(CCC(=O)N(CC3CC3)CC3CCCO3)o2)c1 (stereo not drawn) | -0.3
Cc1cc(/C=C(\C#N)C(=O)NCc2ccco2)c(C)n1-c1cccnc1 | 2.6
O=C(CN(c1ccccc1)S(=O)(=O)c1ccccc1)N1CCOCC1 | 10.7
Cn1c(-c2ccccc2)cnc1SCC(=O)N1CCCc2ccccc21 | 16.2
Cc1cccc(C(=O)NC(C(=O)Nc2nc(-c3ccccn3)cs2)C(C)C)c1 (stereo not drawn) | 12.4
CC(=O)c1ccc(NC(=S)N2CCCCCC2)cc1 | 10.0
Cc1[nH]c2ccccc2c1CCNC(=O)CCC(=O)c1ccccc1 | 19.6
CC(C)CNC(=O)CC1Nc2ccccc2NC1=O (stereo not drawn) | 22.3
CCC(C(=O)O)n1nc(-c2ccccc2)c2cc(Cl)ccc21 (stereo not drawn) | 13.4
C#CCNC(=O)C1=C[C@@H](C2CCCCC2)C[C@@H](OCc2ccc(CO)cc2)O1 | 18.0
CC1SC(c2ccc(F)cc2)NC1=O (stereo not drawn) | 22.9
Cc1nnsc1C(=O)Nc1cccc(Cl)c1Cl | 18.0
COc1ccccc1NC(=O)C(=O)N/N=C/c1ccc([N+](=O)[O-])s1 | 2.9

A draw from above in order of SMILES length, highest first.
SMILES | Biofilm kill mix
Cc1cccc(C(=O)NC(C(=O)Nc2nc(-c3ccccn3)cs2)C(C)C)c1 (stereo not drawn) | 12.4
Cc1[nH]c2ccccc2c1CCNC(=O)CCC(=O)c1ccccc1 | 19.6
CCC(C(=O)O)n1nc(-c2ccccc2)c2cc(Cl)ccc21 (stereo not drawn) | 13.4

Some of the compounds tested; the hit share may differ from the screen's.
